Assay outcomes as filed in PubChem BioAssay.
Rce1 inh = yeast Ras-converting enzyme inhibition. yeast membranes, quenched prenylated peptide cleavage fluorescence. Q03530. AID 2563. hit rate 0.27% among 290,000. calls only;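 active means fall in fluorescence gain of 50% or more versus controls, with final raw signal at or below 3038400; inconclusive means same 50% fall but final raw signal above 3038400; inactive means fall in fluorescence gain under 50%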;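 further: plate controls were neutral control wells for no effect and wells lacking membranes for full effect; tested at 10 µM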
Target sequence (Q03530 whole entry, looked up): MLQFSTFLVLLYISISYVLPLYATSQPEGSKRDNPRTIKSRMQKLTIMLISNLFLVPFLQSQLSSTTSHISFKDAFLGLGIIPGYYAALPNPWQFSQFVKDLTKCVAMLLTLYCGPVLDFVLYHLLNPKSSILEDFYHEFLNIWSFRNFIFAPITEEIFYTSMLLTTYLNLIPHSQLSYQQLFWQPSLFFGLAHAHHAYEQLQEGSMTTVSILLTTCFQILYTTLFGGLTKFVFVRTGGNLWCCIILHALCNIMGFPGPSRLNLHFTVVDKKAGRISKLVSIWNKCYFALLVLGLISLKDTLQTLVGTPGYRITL
eIF4H inh = inhibitors of RNA binding by human eIF4H | Q15056 | eIF4H fluorescence polarization binding assay | inhibition, % at 35 µM | hit rate 0.94% among 290,000;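 active means 50% or more with normal probe brightness, or confirmed in later tests; inconclusive means above 50% with abnormal brightness, or retests that disagree; inactive means below 50% or failed in later tests; about a fifth of its hits are not listed in these tables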;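 further: calls also rest on retests at 20 µM and on dose response follow-up; 0% = protein and probe with vehicle and 100% = probe without protein; strong numbers were not always called active; many hits fall short of the cut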
Yeast UUG start = alters start codon recognition fidelity in yeast; AID 602363; S. cerevisiae UUG-firefly luciferase reporter, luminescence/redox ratio; hit rate 0.13% among 350,000; activity score, % at 18.7 µM;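 active means replicate mean at a twofold rise or more, about +100% in these data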;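 further: firefly luciferase made from a UUG start codon reports start codon fidelity; reporter light over untreated wells divided by growth signal over untreated wells; some hits fall short of that in this replicate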
HIV Env fusion = blocks HIV Env-driven cell-cell fusion. inhibition, % at 12.3 µM. AID 651610. hit rate 1.1% among 360,000. HeLa-JRFL Env/CEM21 cell fusion, luciferase;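 active means mean replicate inhibition score of at least 50 and every replicate individually at or above 50; inconclusive means only one of the two criteria met; inactive means mean below 50 and not all replicates reaching 50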;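 further: 0% = plate neutral controls and 100% = maraviroc near 300 nM; one replicate is shown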
PABP polyA inh = blocks human PABP binding to poly(A) RNA; AID 2014; fluorescence polarization; P11940; hit rate 1% among 290,000; inhibition, % at 35 µM;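 active means 50% or more with normal probe brightness, or confirmed in later tests; inconclusive means above 50% with abnormal brightness, or retests that disagree; inactive means below 50% or failed in later tests; about a fifth of its hits are not listed in these tables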;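 further: calls also rest on retests at 20 µM and on dose response follow-up; controls were probe without protein and protein plus probe with vehicle; some compounds called inactive have numbers as strong as hits; many hits fall short of the cut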
Target sequence (P11940 whole entry, looked up): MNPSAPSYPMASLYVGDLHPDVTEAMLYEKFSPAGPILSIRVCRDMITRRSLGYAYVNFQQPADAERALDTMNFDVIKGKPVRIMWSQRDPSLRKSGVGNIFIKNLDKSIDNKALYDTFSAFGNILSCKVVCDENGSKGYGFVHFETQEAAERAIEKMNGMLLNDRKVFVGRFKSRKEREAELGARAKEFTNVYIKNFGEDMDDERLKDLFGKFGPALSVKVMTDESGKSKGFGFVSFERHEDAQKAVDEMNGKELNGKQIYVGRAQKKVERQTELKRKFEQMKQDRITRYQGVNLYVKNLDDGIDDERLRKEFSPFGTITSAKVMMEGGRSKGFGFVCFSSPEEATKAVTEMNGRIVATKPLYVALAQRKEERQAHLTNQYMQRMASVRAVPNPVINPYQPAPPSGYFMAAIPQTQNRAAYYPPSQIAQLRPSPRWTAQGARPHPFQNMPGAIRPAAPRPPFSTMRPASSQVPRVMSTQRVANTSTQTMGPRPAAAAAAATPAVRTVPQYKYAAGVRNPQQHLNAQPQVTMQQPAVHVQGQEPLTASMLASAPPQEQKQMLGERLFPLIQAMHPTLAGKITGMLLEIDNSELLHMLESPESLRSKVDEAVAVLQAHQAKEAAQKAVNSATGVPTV
CSC inhib = blocks cancer stem cells | inhibition, % at 7.5 µM | cancer stem cell-like cells viability, luminescence | hit rate 1.1% among 300,000 | AID 2717;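 active means mean at 75% or more and at least half the replicates too; inconclusive means mean and replicates disagree; tested in HMLE shEcad cells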;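 further: 0% = median of negative and 100% = median of positive control wells; the first replicate is given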
MT1-MMP act inh = blocks activation of human MT1-MMP; HT1080 RFP-PRO-GFP cells, GFP/RFP ratio fluorescence, overnight; percent of plate control window, DMSO zero; AID 651647; GFP/RFP ratio change, % at 20 µM; hit rate 0.061% among 360,000; P50281;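 active means GFP/RFP ratio change of at least 30% with cell ATP level not reduced by more than half and red fluorescence within 50% of control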; further: strong numbers were not always called active
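Assay system – RFP-PRO-GFP reporter HT1080 cells · Compound dosing – single dose of 20 µM compound, 1% DMSO final · Incubation – overnight compound exposure at 37 °C · Measure – GFP/RFP fluorescence ratio · Benchmarks – DMSO wells and RFP-L50D-GFP cells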
eIF4H inh retest = further read-out of eIF4H inh, marked with its call; inhibition, %; compound at 20 µM; confirmation average;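 mean of two retest wells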
PABP polyA inh retest = also measured in PABP polyA inh; calls as there; inhibition, %; compound at 20 µM; confirmation repeats;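 mean of two retest wells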
MT1-MMP act inh RFP = second read-out of MT1-MMP act inh, no call of its own (marks repeat the call); RFP signal change, %; measured here: RFP expression control read;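 0 = vehicle wells; hits needed this value within 50% of zero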
An asterisk follows results filed as active; i = inactive; ? = inconclusive; · = no result given; & = joins results of further samples. A portion of the library, so the mix of outcomes need not match the whole.

SMILES	Rce1 inh	eIF4H inh	Yeast UUG start	HIV Env fusion	PABP polyA inh	CSC inhib	MT1-MMP act inh	MT1-MMP act inh RFP	others
CC(=O)C1=CCC(c2ccccc2)N(S(=O)(=O)c2ccccc2C)C1 (stereo not given)	·	·	-5&-5	11	·	·	-2&10	1&1
OCCCCNCc1cc(Br)ccc1OCc1ccccc1F	i	0	-2	-4	3	-3	-1	0
CC(C)(C)OC(=O)C[C@H]1C/C=C\C[C@H](CC(=O)NCCO)C(=O)NCCOC1=O	·	·	-7	17	·	-2	-2	0
CCCn1c(O)c(N=N)c2ccccc21	i	-2	-15	-13	-4	-17	-6	-2
COC(=O)[C@H](CCSC)NC(=O)Nc1ccc(C(C)=O)cc1	i	-8	-16	7	-2	-5	14	-3
CCOC(=O)c1ccc(NC(=S)N(CCCN2CCCCC2)Cc2ccco2)cc1	i	-6	-20	12	16	-2	1	2
CCc1nc(NC2CCCCC2)c(C#N)c2c1COC(C)(C)C2	i	1	-11	·	-2	3	-10	-7
NS(=O)(=O)c1ccc(CNC(=O)CSc2nc3ccc(Cl)cc3[nH]2)cc1	i	-8	-3	-8	-6	-1	-4	-1
Cc1ccc(C)c(N2CCN(C(=O)C3CCN(S(=O)(=O)c4cccc5nsnc45)CC3)CC2)c1	i	8	1	-37	-9	-9	-29	-32
Cc1ccc2[nH]c3c(c2c1)CN(C(C)C)CC3	i	-6	-4	3	-3	2	-6	-2
Cc1ccc(NC(=O)C(C)N2C(=O)c3ccccc3S2(=O)=O)cc1Cl (stereo not given)	i	·	4	-1	·	-14	-9	-1
O=C(NNC(=O)C1CCC1)c1ccc(Br)cc1	i	·	3	-14	·	-6	-8	4
O=C(CSc1nnc2n(C3CCCCC3)c(=O)c3ccccc3n12)OC1CCCCC1	i	-15	-12	-1	3	-3	3	-3
COc1cc2[nH]c(=S)n(Cc3ccccc3)c(=O)c2cc1OC	i	-6	·	-24	12	15	7	-5
Cc1ccccc1-c1nnn(Cc2ccc(-c3nn[nH]n3)cc2)n1	i	1	·	10	-7	6	3	7
COc1ccccc1NC(=S)N(CCN1CCOCC1)Cc1ccccc1F	i	-15	-7	36	-1	·	2	2
CC1CCN(C(=O)CNS(=O)(=O)c2ccc(Br)s2)CC1	i	-10	-7	·	-3	-16	1	2
Cc1cc(C(F)F)n2nc(C(=O)Nc3c(F)cc(F)cc3Br)nc2n1	i	-2	-12	·	0	10	0	5
COCCSc1ccccc1C(=O)N1CCC(Cc2ccccc2)CC1	i	-5	·	12	1	-8	-5	0
O=C(N/N=C/c1ccc[nH]1)c1cccc(Br)c1	i	-9	·	-2	1	6	-13	-11
Cc1ccc(N(C)S(=O)(=O)c2ccc3c(c2)CC(C)N3C(=O)C2CC2)cc1 (stereo not given)	i	·	·	-3	·	-2	3	1
COC(=O)c1ccc(N=C2SCC(=O)N2C)cc1	i	5	-28	-6	13	-3	-4	-5
CC(C)(C)NC(=O)CSc1nc(N)c(NC(=O)c2ccccc2F)c(=O)[nH]1	i	-9	-14	3	-6	·	-2	3
O=C(NCc1ccccc1Cl)C1CCC(=O)N1Cc1ccc(F)cc1 (stereo not given)	i	6	-7	8	-1	-10	3	0

2 entries drawn at random from the list so far:
SMILES	Rce1 inh	eIF4H inh	Yeast UUG start	HIV Env fusion	PABP polyA inh	CSC inhib	MT1-MMP act inh	MT1-MMP act inh RFP	others
COc1ccccc1NC(=S)N(CCN1CCOCC1)Cc1ccccc1F	i	-15	-7	36	-1	·	2	2
COCCSc1ccccc1C(=O)N1CCC(Cc2ccccc2)CC1	i	-5	·	12	1	-8	-5	0

Later entries:
SMILES	Rce1 inh	eIF4H inh	Yeast UUG start	HIV Env fusion	PABP polyA inh	CSC inhib	MT1-MMP act inh	MT1-MMP act inh RFP	others
CC(=O)N1CC(=O)N=C1SCC(=O)Nc1nc(C)c(-c2ccccc2)s1	i	10	0	4	34	7	1	9
O=[N+]([O-])c1ccc(C2=CSC3=NCCN23)cc1	i	·	·	-7	·	-12	-2	-1
COc1ccc2[nH]c(=O)c(CN(C(=O)c3cccnc3)c3ccccc3)cc2c1	i	-9	-13	·	-2	-8	1	2
COc1ccc(C(=O)Nc2ccc(S(=O)(=O)Nc3nccnc3OC)cc2)cc1	i	-10	-1	15	1	-13	0	0
COc1cccc(OCC(=O)NNC(=O)C(=O)Nc2cccc(C)c2)c1	i	-7	-8	-35	-7	·	-1	6
COc1cc(CN2CCN(Cc3ccc4cc(F)ccc4n3)CC2CCO)cc(OC)c1 (stereo not given)	i	-2	-6	11	-4	5	-1	0
CCOC(=O)c1cnc(-n2nc(C)cc2C)[nH]c1=O	i	-7	-40	-13	6	-11	2	4
Cc1cccc(NC(=O)COC(=O)Cc2cccc(C(F)(F)F)c2)c1C	·	-3	-14	-36	106	-8	2	1	eIF4H inh retest=5;PABP polyA inh retest=7
O=C(NCc1ccco1)c1cccnc1Cl	i	1	-10	·	-1	-5	-3	3
Oc1c(Br)cc(Br)cc1C=Nc1ccc2c(c1)OCO2	i	?	-9	25	?	12	-1	4
CCc1sc(NC(=O)CN2CCC(C(N)=O)CC2)nc1-c1ccccc1	i	-1	0	-4	-16	-17	1	0
CCCc1cc(C(=O)Nc2ccc(C(=O)c3ccccc3)cc2)n(C)n1	·	-6	-1	41	-5	12	-2	-15
O=C(c1ccc(NS(=O)(=O)c2cccc3cccnc23)cc1)N1CCCCC1	i	-20	·	8	1	-11	0	1
CC1C/C(=N/N2C(=O)CSC2=S)CC(C)(C)C1 (stereo not given)	·	10	12	·	1	-6	9	12
Cc1ccc(/C=C2/SC(=S)N(CCCC(=O)Nc3cc([N+](=O)[O-])ccc3O)C2=O)cc1	i	-11	-4	20	-7	66	12	-31
Nc1nc(SCC(=O)NC2CCCCC2)n[nH]1	i	-5	-22	8	12	2	2	3
Cc1ccc(S(=O)(=O)NC(=NC(C)C)c2ccccc2)cc1	i	-4	-15	-3	5	7	2	4
CCOC1=C2[C@@H](CN(S(=O)(=O)c3ccc(C)cc3)[C@H]2c2cccc3ccccc23)[C@H]2C(=O)N(c3ccccc3)C(=O)[C@H]2C1	·	·	-14	-15	·	·	3	0
O=C(Cc1cccc2ccccc12)Nc1ccccc1Br	i	0	-10	0	18	-12	4	1
O=[N+]([O-])c1cccc(S(=O)(=O)Nc2ccc(-c3ccc(N4CCOCC4)nn3)cc2)c1	i	·	9	-1	·	23	0	-5
CCOC(=O)Cn1cnc2c(sc3nc(C)cc(C)c32)c1=O	i	3	·	-25	2	-2	1	1
COc1cc(CNC2CCCCCCC2)ccc1OCC(N)=O	i	-1	-12	-4	-5	-5	-1	5
COC(=O)Nc1nn(-c2ccc(Cl)cc2)c(=O)c(C#N)c1C	i	-8	-1	0	2	-18	3	4
COCCn1c(=NC(=O)CCS(=O)(=O)c2ccccc2)sc2cc(F)ccc21	i	-9	-20	7	-5	-10	2	0
COc1ccc(C(C)=O)cc1COC(=O)CCNS(=O)(=O)c1ccc(C)c(C)c1	·	·	-3	0	·	-10	1	0
Cc1ccc(NS(=O)(=O)c2cc([N+](=O)[O-])ccc2N/N=C/c2sc(N3CCOCC3)nc2-c2ccccc2)c(C)c1	i	6	·	8	-4	8	-110	-5
Cc1ccc(OCC(=O)NC2CCS(=O)(=O)C2)c([N+](=O)[O-])n1 (stereo not given)	i	·	-15	-5	·	-7	1	0
CN1C(=O)/C(=C\c2ccccc2OCc2ccccc2)SC1=S	i	-2	-23	1	-3	11	1	2
Cc1ccccc1Nc1nc(N)nc(CSc2nc3ccccc3c(=O)n2C)n1	i	3	·	·	6	14	8	-25
CCc1ccccc1NC(=O)Nc1cccc(F)c1	i	11	·	25	20	-16	2	-3
COc1ccc(S(=O)(=O)O/N=C2\CCCc3ccccc32)cc1	i	-10	-9	-56	7	4	1	1
Cc1cccc2cc(C#N)c(NCCCn3ccnc3)nc12	i	1	-2	0	-5	-2	1	-6
NNC(=O)CNC(c1ccccc1)c1cc(Br)ccc1N (stereo not given)	i	-7	-9	-6	2	-10	4	2
O=C(CSc1ncccc1C(=O)O)c1ccc2ccccc2c1	i	3	1	-43	-3	-2	1	2
CN(C)c1ccc(/C=C/C(=O)c2cccnc2)cc1	i	?	-3	16	?	-8	2	-1
CN(C(=O)CSc1nnc(-c2ccccc2F)o1)c1ccccc1	i	·	-7	-7	·	-3	2	-1
CN(Cc1ccccc1)c1nc(N)c([N+](=O)[O-])c(NCc2ccccc2)n1	i	-3	-6	·	4	30	-6	-16
COc1ccc(-c2csc(NC(=O)c3cccs3)c2C(=O)O)cc1OC	i	0	·	-3	9	-7	7	8
COc1ccc(C)cc1N(C(=O)COc1cccc(F)c1)c1nc2ccccc2s1	i	-14	-6	1	-5	31	-11	-5
Cc1ccc(NS(=O)(=O)c2ccc3c(c2)NC(=O)C(C)C(=O)N3)c(Br)c1 (stereo not given)	i	0	-8	-6	-4	·	-4	1
OCc1ccc(-c2nn(Cc3ccccc3)c3ccccc23)o1	i	·	-15	15	·	-7	4	-1
CC(C)N1CSC(=S)N(Cc2ccccc2)C1	i	-8	-23	4	-5	3	-8	-2
CCn1c(-c2cccnc2)n[nH]c1=S	i	-7	-6	·	-9	-15	-1	3
CCC(=O)NCCNc1nc2cc(C)c(C)cc2cc1C#N	i	-5	-17	-446	3	-2	12	-2
CCC1CCC(c2nnc(-c3ccc([N+](=O)[O-])cc3)o2)CC1 (stereo not given)	i	-6	·	·	-6	4	-2	0
O=C1c2ccccc2C(O)(c2ccccc2)N1CCc1ccccc1 (stereo not given)	i	-17	5	23	-9	-15	-5	-6
CCOC(=O)c1cc(-c2ccc(C)cc2)nc2nc(SC)[nH]c(=O)c12	i	8	·	-19	4	7	-3	-1
COc1ccc(NC(=O)CN(c2ccccc2F)S(=O)(=O)c2ccc(C)cc2)cc1	i	-9	-20	3	-6	-10	1	-1
O=C(O)COCC(=O)N1CCN(C(c2ccccc2)c2ccccc2)CC1	i	2	·	-57	-4	-10	-21	-8
CCN1CCN(C(=O)/C=C/c2ccc([N+](=O)[O-])cc2)CC1	i	1	·	1	-2	34	1	1
CCOCCCNc1ncnc2c1[nH]c1ccccc12	i	2	7	·	-2	-5	0	-19
CCOC(=O)C1(Cc2cccc(OC)c2)CCN(C(C)CC(C)(C)O)CC1 (stereo not given)	i	0	-5	8	-5	1	-8	-3
N/C(=N\c1nc2c(c(=O)[nH]1)CCC2)Nc1cccc(Cl)c1	i	-10	·	-19	2	18	-2	-6
COc1ccc(C)cc1NC(=O)c1nnn(Cc2cccc(C(F)(F)F)c2)c1N	i	-1	·	-8	-2	69	4	-1
Cc1ccc(OCCCn2ccnc2)c(Br)c1	i	32	-10	-17	11	-26	8	-7
CSc1nc(SCC(N)=O)c2c3c(sc2n1)CN(C)CC3	i	27	-13	·	22	-8	-7	2
CC(=O)c1ccc(OCc2cc(C(=O)NC3CCCCC3)no2)cc1	i	-12	-22	-23	-2	-13	0	-3
CC1=C(C(=O)Nc2ccccn2)C(c2ccc(Cl)cc2Cl)NC(=S)N1 (stereo not given)	·	0	·	2	16	-12	-1	3
CCOC(=O)c1ccc(NC(=O)CC2OCCN(CC)C2=O)cc1 (stereo not given)	i	-6	-18	-5	6	-20	-4	7
O=C(NCc1ccncc1)c1cncc(Br)c1	i	-1	·	12	-4	3	-5	0
